Screens as filed in PubChem.
Bead autofluor – compound fluorescence in toxin protease inhibitor counterscreen; compound autofluorescence counterscreen, microsphere flow cytometry; stronger effect = higher value; fluorescence intensity (test concentration not listed); 360,000 tested, 3.1% active;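 active = at least 3 SD above the mean of all compounds, about 16000 in these data; inconclusive = too few beads counted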;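 also: 100 nL of 1 mM stock went into each well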
PrP 5UTR inh – suppresses PrP 5' UTR mRNA reporter expression; 340,000 tested, 0.35% active; cell-based PrP 5' UTR mRNA reporter, plate reader; AID 488862; inhibition, % (no concentration beside the values);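 active = every replicate at 50% or more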;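 also: 0 = median of the neutral control wells; tested in H4 reporter cells; numbers are from one replicate; inactives centre near -14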
BJeLR viability – BJeLR cell viability loss | BJeLR (HRASV12) viability, CellTiter-Glo ATP luminescence, 48 h; reference of the scale not given here | inhibition, % (test concentration not listed) | AID 1554 | 300,000 tested, 0.17% active;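 active = replicate mean above 50%; inconclusive = above 50% but judged a plate artefact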;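 also: 50 nL library stock added to about 25 µL; numbers are from one replicate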
Mtb hypoxia inh – reduces hypoxia-regulated biosensor signal in M. tuberculosis. fluorescence inhibition, % (test concentration not listed). 300,000 tested, 0.1% active. M. tuberculosis hypoxia-regulated fluorescent reporter, fluorescence;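 active = 35 to 45% if threefold the growth effect, above 45% if 1.5-fold the growth effect; inactive = the rest, general growth blockers included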;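 also: wells of about 50 µL received 100 nL stock; 0% = vehicle wells and 100% = reference inhibitor wells; whole bacteria with a GFP reporter of the hypoxia response; strong numbers were not always called active; many hits fall short of the cut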
RN4220 kill – kills Staphylococcus aureus RN4220. S. aureus RN4220 growth, OD600, 16 h. inhibition, % (concentration not given with the values). 330,000 tested, 0.33% active. AID 1259311;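 active = z-score of -3 or lower and OD600 up to 0.18 on both plates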;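 also: plate controls were untreated cells for no effect and reference antibiotic for full effect; stock transfer was 100 nL into about 80 µL; one replicate is shown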
ugtP null kill – growth inhibition of S. aureus ugtP deletion strain; S. aureus RN4220 ugtP deletion, OD600 growth, 16 h; some inactives read as strong as hits; growth inhibition, % (test concentration not listed); 330,000 tested, 0.54% active; AID 1259309;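 active = z-score under -3 and OD600 up to 0.15 on both plates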;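 also: plate controls were untreated wells for no effect and antibiotic for full effect; wells of about 80 µL received 100 nL stock; the first replicate is given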
Mtb hypoxia inh growth – also measured in Mtb hypoxia inh; calls as there; growth inhibition, %; measured here: M. tuberculosis growth (absorbance);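 0% = vehicle and 100% = reference antibiotic; read after six days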
* hit, by the source's call; ? = inconclusive; . = no result given.

entry	SMILES	RN4220 kill	Bead autofluor	BJeLR viability	Mtb hypoxia inh	ugtP null kill	Mtb hypoxia inh growth	PrP 5UTR inh
1	COc1ccc(S(=O)(=O)Nc2ccc3c(c2)OCO3)cc1Cl	-25.4	3119	4.9	2.5	-5.1	4.7	-14.5
2	O=C1N/C(=C/c2cccn2-c2ccccc2)C(=O)N1Cc1ccccc1F	.	2414	11.2	.	.	.	-1.2
3	O=C(COc1ccc([N+](=O)[O-])cc1)Nc1ccc(N2CCCC2)cc1	.	1906	2.5	.	.	.	-24.8
4	O/N=C1\CC(O)Cc2nonc21 (stereo not drawn)	.	4284	-3.8	.	.	.	-48.0
5	Cc1nn(CC(C)C)c(Cl)c1C(=O)NC1CCC(C)CC1 (stereo not drawn)	3.1	?	-4.6	11.2	14.5	2.0	-72.4
6	CN1CCN(S(=O)(=O)c2cccc(C(=O)NC3(C)CCS(=O)(=O)C3)c2)CC1 (stereo not drawn)	0.1	3962	.	6.3	7.4	-1.3	-24.5
7	Cc1ccc(-c2nc3cccnc3s2)cc1NC(=O)c1ccco1	-4.1	7969	-6.4	9.6	-2.4	3.6	-59.4
8	Cn1c(=O)n(C)c2cc(C=N/N=C3/NC(=O)C(CC(=O)O)S3)ccc21 (stereo not drawn)	2.4	.	.	6.3	9.3	9.8	.
9	CN(Cc1ccccc1)S(=O)(=O)c1ccc(C(=O)Nc2nnc(C3CC3)o2)cc1	25.7	3064	3.6	-9.7	-1.8	2.9	0.1
10	CSc1ccc(N/N=C(/C#N)S(=O)(=O)C(C)(C)C)cc1	.	3954	-3.8	.	.	.	-29.7
11	O=C(c1ccccc1)N1CCN(C(=O)c2cc3ccccc3oc2=O)CC1	1.4	3657	-0.5	5.7	8.6	10.0	-10.7
12	CC1CC(C)CN(C(=O)c2ccc3c(c2)OCCO3)C1 (stereo not drawn)	3.9	3767	.	14.9	1.5	4.4	-38.8
13	Cc1ccc(Nc2nc(-c3sc(N)nc3C)cs2)cc1	-6.2	?	-3.2	1.6	-15.6	-0.5	-50.2
14	O=C(c1ccccc1)c1ccc2nc(N3CCN(C(=O)c4ccco4)CC3)c3nncn3c2c1	5.6	5136	5.4	6.2	1.3	7.1	-55.3
15	COc1ccc(OC)c(C(C)=NNc2ccc(C(=O)O)cc2)c1	16.1	.	.	3.5	30.3	0.7	.
16	Nn1cc(-c2ccccc2)nc1SCC(=O)Nc1cccc(S(N)(=O)=O)c1	3.5	3539	6.4	7.9	9.5	6.2	-14.1
17	CN(C)/C=C1\C(=O)N(c2ccc(Cl)c(Cl)c2)CS1(=O)=O	-1.4	2505	1.1	-10.5	2.1	-5.1	-46.9
18	O=C1NC(c2ccccc2)CCC1(Cl)Cl (stereo not drawn)	3.6	9073	1.3	-3.0	4.9	2.0	-47.1
19	COc1ccc(Br)cc1C(=O)Nc1cccc2ncccc12	5.7	4318	-21.1	2.9	11.7	7.4	-43.2
20	CN(C)/C=C1/Sc2ccccc2C1=O	3.9	3739	1.5	.	11.1	.	-15.4
21	CCOP(=O)(OCC)C(NC(=O)C(C)C)C(Cl)(Cl)Cl (stereo not drawn)	4.7	4613	-3.0	.	3.6	.	1.5
22	CC(C)(C)n1nnnc1C(c1cccs1)N(Cc1ccccc1)Cc1ccco1 (stereo not drawn)	-6.2	3270	-4.9	6.3	12.4	17.9	-19.0
23	O=C1NC(=O)/C(=C\c2ccc(OCc3cnc(Cl)s3)cc2)S1	4.7	4768	4.3	3.1	3.7	11.6	-45.4
24	CCOC(=O)C1C2COc3cc(OC)ccc3C2N2C(=O)c3cc(C)ccc3NC(=O)[C@@]12C (stereo partly drawn)	-5.5	.	.	-4.7	-1.4	14.6	.
25	COc1ccccc1CNc1ccc(N2CCOCC2)c(C(=O)O)c1	4.4	?	2.6	5.5	2.1	1.4	-21.7
26	CCOC(=O)C1CCCN(C(=O)c2cc(-c3ccc(C)cc3)on2)C1 (stereo not drawn)	1.1	8084	-6.3	-4.7	1.5	1.4	-7.9
27	O=C(NNc1c(Cl)cncc1Cl)c1sccc1Cl	2.5	4236	-8.7	5.4	6.4	12.1	-20.1
28	Cc1cccc(CN2CCc3c(OCC(=O)N4CCCc5ccccc54)cccc3C2=O)c1	2.5	2017	-4.5	16.4	-10.6	4.9	2.7
29	CCN1C(=O)/C(=C2/Sc3ccccc3N2CC)S/C1=N\c1ncn[nH]1	.	3957	4.5	.	.	.	11.0
30	CCOC(=O)c1c(CSc2ccc(C)cc2)n(C)c2cc(Br)c(O)c(CN(C)C)c12	-1.1	4056	0.3	4.7	-8.3	12.0	-37.4
31	Cc1ccn2cc(C34CC5CC(CC(C5)C3)C4)nc2c1	2.8	1967	8.0	-10.0	-0.3	3.1	-34.2
32	O=C(COC(=O)c1ccc2c(c1)S(=O)(=O)c1ccccc1C2=O)NC1CC1	3.1	3774	-6.1	8.8	3.8	-2.2	-5.7
33	COc1cc(CN2CCN(c3cc(C)ccc3C)CC2)ccc1O	0.2	10655	-6.8	5.5	-3.7	4.8	.
34	COc1ccc2c(c1)cc(C(=O)N[C@H](C(=O)N1CCC[C@H]1C(=O)O)C(C)C)n2C	0.9	4323	-9.3	.	5.3	.	34.6
35	CCOC(=O)c1ccc(NC(=O)CC2COc3ccccc3O2)cc1 (stereo not drawn)	-6.7	4709	1.4	.	0.5	.	-14.3
36	O=C(O)CC(NC(=O)C12CC3CC(CC(C3)C1)C2)c1cccc(Cl)c1 (stereo not drawn)	2.9	3595	1.7	-4.6	1.6	14.7	-27.5
37	Cc1cc2nn(-c3cccc4ccccc34)nc2cc1N	1.4	4139	1.3	4.0	-2.4	7.2	-37.1
38	Cc1cc(C)cc(NC2=NCC(=O)N2Cc2ccccc2)c1	-0.3	2449	9.2	.	6.8	.	-16.7
39	CCc1ccc(OC(C)C(=O)Nc2ccccc2C(=O)N2CCOCC2)cc1 (stereo not drawn)	3.6	?	2.7	1.0	9.4	0.9	-8.7
40	NC(=O)c1ncc(C(F)(F)F)cc1Oc1cccnc1	0.8	4427	-5.5	15.1	-0.8	3.0	0.5
41	CCOc1ccc2nc(NC(=O)C34CC5CC(CC(NC(C)=O)(C5)C3)C4)sc2c1	-2.7	?	2.0	2.8	-20.0	-0.1	-37.6
42	Cc1ccc2cc(C=NNC(=O)[C@H](C)NC(=O)OC(C)(C)C)c(Cl)nc2c1	5.0	.	.	10.1	0.8	1.9	.
43	N#Cc1c(-c2ccco2)c2c([nH]c1=S)CCCC2	-16.8	2969	-0.4	4.0	0.1	12.7	-10.7
44	COc1cc(OC)c(OC)cc1/C=C1/Cc2ccccc2C1=O	6.2	3870	5.9	-8.4	-8.2	7.6	-1.0
45	NC(=O)c1ccc2c(=O)n3c(-c4cccs4)csc3nc2c1	6.5	4225	2.7	6.9	87.6*	12.1	-15.9
46	CCCCCC(=O)Cc1cc(O)cc2c1C(=O)Oc1cc(O)c(C(=O)O)c(CCCCC)c1O2	10.4	.	-13.8	.	68.3	.	.
47	O=C(c1cc(-c2cccc(Cl)c2)on1)N1CCCC1	11.5	5579	-0.5	15.2	-6.8	1.1	-14.5
48	CC(=O)Nc1ccc(Sc2ccc([N+](=O)[O-])o2)cc1	41.1	3932	.	.	68.6	.	-13.4
49	CN1C(=O)C(CC(=O)NC2CCCCC2)SC1=Nc1ccccc1 (stereo not drawn)	2.0	2551	-1.7	-1.5	6.7	2.5	-13.9
50	O=C1CN(S(=O)(=O)c2cc(Cl)ccc2Cl)CCN1	4.4	3369	-5.0	9.8	6.2	-3.1	0.0
51	N#Cc1cccc(NC(=O)CN2C(=O)NC3(CCCCCC3)C2=O)c1	4.1	5340	.	9.8	6.2	6.2	-9.9
52	O=C(CCC(=O)N1CCOCC1)Nc1nnc(C2CCCCC2)s1	0.7	10923	0.7	5.6	-6.3	1.1	-13.2
53	CCCN1CCN(CCCNC(=O)CN2C(=O)c3cccnc3Oc3ccc(Cl)cc32)CC1	-0.5	6113	-15.9	0.1	6.4	-5.5	-19.5
54	CCOc1ccc(C=NNC(=S)NC2CC3CC2C2C=CCC32)cc1 (stereo not drawn)	3.1	.	.	3.6	52.8	7.0	.
55	CCN(CC)C(=O)C1CCC(CNS(=O)(=O)c2cccc3cccnc23)CC1 (stereo not drawn)	5.5	5547	1.1	.	7.1	.	14.7
56	O=C(CN1CCOCC1)NCc1cc([N+](=O)[O-])ccc1O	4.3	4016	-12.8	-12.4	3.0	-9.4	-5.2
57	COC(=O)C1=C(C(=O)c2ccccc2)C(c2ccccc2)n2nnnc2N1 (stereo not drawn)	10.3	2118	-0.3	-7.9	4.4	-1.4	-7.8
58	O=C(Nc1ccc(-c2cnco2)cc1)c1ccccc1	1.5	3733	2.8	12.3	2.2	-1.7	-102.5
59	Cc1cc(-c2ccccc2)n2ncnc2n1	3.1	3508	-3.6	4.1	7.7	5.0	-16.8
60	Cn1c2ccccc2c2cc(/C=N/NC(=O)c3ccc(O)cc3O)ccc21	.	15675	-4.5	.	.	.	-35.5

Record cards (already shown).
Results for O=C(COC(=O)c1ccc2c(c1)S(=O)(=O)c1ccccc1C2=O)NC1CC1 : RN4220 kill = 3.1; Bead autofluor = 3774; BJeLR viability = -6.1; Mtb hypoxia inh = 8.8; ugtP null kill = 3.8; Mtb hypoxia inh growth = -2.2; PrP 5UTR inh = -5.7
Results for N#Cc1cccc(NC(=O)CN2C(=O)NC3(CCCCCC3)C2=O)c1 : RN4220 kill = 4.1; Bead autofluor = 5340; BJeLR viability = .; Mtb hypoxia inh = 9.8; ugtP null kill = 6.2; Mtb hypoxia inh growth = 6.2; PrP 5UTR inh = -9.9

(list continues)
entry	SMILES	RN4220 kill	Bead autofluor	BJeLR viability	Mtb hypoxia inh	ugtP null kill	Mtb hypoxia inh growth	PrP 5UTR inh
61	CCCCn1c(N)c(N(CC(C)C)C(=O)C2CC(=O)N(c3ccc(CC)cc3)C2)c(=O)[nH]c1=O (stereo not drawn)	2.0	.	-1.4	10.4	8.7	2.0	-15.3
62	Cc1ccc(-c2nnc(CSc3nnc(COc4cccc5ccccc45)n3-c3ccccc3)o2)cc1	11.9	3213	-2.7	0.0	-24.5	5.2	-2.8
63	CN(C)S(=O)(=O)c1cccc(NC(=O)CSc2ncnc3ccccc23)c1	7.2	6000	8.3	14.2	10.0	-0.3	4.1
64	COc1ccc(CN2CCC(C(=O)c3cccc(Cl)c3)CC2)cc1	1.1	4324	-10.7	1.1	2.9	0.5	-75.9
65	Cc1ccc(-n2ncc3c(=O)n(-c4ccc(C)c(C)c4)c(C)nc32)cc1	10.8	3639	-1.9	.	5.9	.	2.6
66	CCN(CC(=O)Nc1ccc(C)c(S(=O)(=O)N(C)C)c1)Cc1ccccc1	8.0	3835	1.3	5.5	-6.0	0.6	-20.5
67	Nc1sccc1C(=O)c1ccccc1	6.2	.	11.1	1.2	-7.5	0.9	.
68	CCCCSc1nc(N)c(C#N)c(-c2cccs2)c1C#N	3.4	19876*	-4.7	15.6	14.4	2.4	7.7

As entered above:
ugtP null kill, cpd 61 is entered as 8.7
Mtb hypoxia inh growth, cpd 68 is entered as 2.4

Compounds were not picked by outcome; any-hit rate near 4%.
